CBX7 AlphaScr = CBX7 chromodomain binding inhibitors, primary screen, biochemical, AlphaScreen | AlphaScreen His6-CBX7 / biotin-H3K27me3 peptide binding; stronger effect = lower value | normalised signal (fraction of DMSO) (no concentration beside the values) | actives 1.1% (n = 66,000) | AID 1224903, 2016; in the data active = normalised signal below about 0.5;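 also: 100 nL library stock added to about 20 µL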
Target sequence (O95931 whole entry, looked up): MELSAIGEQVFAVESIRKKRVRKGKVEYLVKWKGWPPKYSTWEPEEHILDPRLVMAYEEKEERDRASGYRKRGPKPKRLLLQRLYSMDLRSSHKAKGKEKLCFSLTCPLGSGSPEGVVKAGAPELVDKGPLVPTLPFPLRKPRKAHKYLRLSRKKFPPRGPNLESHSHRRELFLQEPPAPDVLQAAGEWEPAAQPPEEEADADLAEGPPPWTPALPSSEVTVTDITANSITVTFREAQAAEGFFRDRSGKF
CBX7 AlphaScr z-score = second read-out of CBX7 AlphaScr, no call of its own (marks repeat the call); z-score; measured here: z-score of CBX7 signal; some inactives read as strong as hits; reference of the scale not given here;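 same signal on another scale; lower means less binding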
An asterisk follows results filed as active.

SMILES | CBX7 AlphaScr | CBX7 AlphaScr z-score
Cc1nonc1N(Cc1ccc(F)cc1)S(=O)(=O)c1ccccc1 | 1.2 | 7.8
COc1ccc(-c2cc(CCCC(=O)N3CCN(c4ccccc4)CC3)no2)cc1 | 0.97 | -1.3
CN(CCCNC(=O)c1cc(-c2ccncc2)nc2ccccc12)C1CCCCC1 | 1.2 | 1.9
Cc1ccc(N2C(=O)c3ccccc3C2Nc2c(C)cc(C)cc2C)nc1 (stereo not drawn) | 0.99 | -0.32
COc1cccc(-c2nc(-c3ccccn3)no2)c1 | 0.86 | -2
COc1ccc(C(C(=O)NC2CCCCC2)N2CCC3(CC2)OCCO3)cc1 (stereo not drawn) | 1 | 0.11
COc1ccccc1CNC(=O)c1cn(-c2ccc(Cl)cc2)c(=O)c2ccccc12 | 1 | 1.1
COc1cc(NS(=O)(=O)c2cnc[nH]2)cc(OC)c1 | 0.95 | -2
Cc1ccc(S(=O)(=O)NC(CC(C)C)C(=O)O)cc1 (stereo not drawn) | 1.1 | 1.2
CCOC(=O)N1CCC(NC(=O)CCc2c(C)nc3ncnn3c2C)CC1 | 1 | 0.73
Cc1cc(C)c2oc(-c3ccc(C)c(NC(=O)c4cccc(F)c4)c3)nc2c1 | 1.5 | 2.2
O=C1CN(C(=O)c2ccccc2C(F)(F)F)C(c2ccc(F)cc2)c2cc(Br)ccc2N1 (stereo not drawn) | 0.7 | -2.8
COc1cccc(NC(=O)C2CCCN2S(=O)(=O)c2ccc3c(c2)n(C)c(=O)c(=O)n3C)c1 (stereo not drawn) | 1.1 | 1.2
COC(=O)C1CCN(c2cc(=O)n(-c3ccccc3Cl)c(=O)[nH]2)CC1 | 0.96 | -0.82
Cn1cc(CC(=O)Nc2cccc(Cl)c2)c2ccccc21 | 0.89 | -1.5
Cc1oc(-c2ccc(Cl)cc2)nc1CN1CCCC(C(=O)N2CCOCC2)C1 (stereo not drawn) | 1.1 | 2.1
CCCCNC(=O)c1ccc2c(c1)N(Cc1ccccc1Cl)C(=O)CS2 | 0.93 | -1.5
COc1ccc(CCNC2CC(=O)N(c3ccccc3)C2=O)cc1OC (stereo not drawn) | 0.97 | -0.22
CCOc1ccccc1CN1C(=O)CCC1(C)C(=O)NC1CCCCC1 (stereo not drawn) | 1 | 0.97
Cc1c(Cl)cccc1-n1ncnc1-c1ccc2c(c1)OCO2 | 1.1 | 0.99

Next section, overlapping the part above by 4 compounds.
SMILES | CBX7 AlphaScr | CBX7 AlphaScr z-score
CCCCNC(=O)c1ccc2c(c1)N(Cc1ccccc1Cl)C(=O)CS2 | 0.93 | -1.5
COc1ccc(CCNC2CC(=O)N(c3ccccc3)C2=O)cc1OC (stereo not drawn) | 0.97 | -0.22
CCOc1ccccc1CN1C(=O)CCC1(C)C(=O)NC1CCCCC1 (stereo not drawn) | 1 | 0.97
Cc1c(Cl)cccc1-n1ncnc1-c1ccc2c(c1)OCO2 | 1.1 | 0.99
O=C(Nc1ccc(Cl)cc1)c1cccc(NC2=NC3CS(=O)(=O)CC3S2)c1 (stereo not drawn) | 1.1 | 2.1
COc1cccc(-c2nnc(NC(=O)c3ccc(S(=O)(=O)N4CCc5ccccc5C4)cc3)o2)c1 | 0.92 | -1.7
O=C(Nc1ccc(Cc2ccncc2)cc1)NC1CCCCC1 | 1 | 0.31
COc1ccc(C2=NOC(C(=O)N3CCN(Cc4ccccc4)CC3)C2)cc1 (stereo not drawn) | 0.99 | -0.081
CCc1ccc(C2=NN(CCC(=O)NCc3ccc(OC)cc3)C(=O)CC2)cc1 | 0.96 | -0.78
CCCCCc1ccc(-c2ccc(C(=O)Nc3cccc(C(F)(F)F)c3)cc2)nc1 | 1.1 | 1.9
OC(COCc1ccc(Cl)cc1)CN1CCN(c2ccc(F)cc2)CC1 (stereo not drawn) | 0.9 | -2.8
O=C(NC1CCCC1)c1cc(-c2ccc(Cl)cc2)on1 | 1.1 | 0.088
CCC(C(=O)NCC1CCCO1)n1ncc2ccccc21 (stereo not drawn) | 1 | 0.41
CC(C(=O)NCc1ccc(Cl)cc1)n1ncc2ccccc21 (stereo not drawn) | 0.98 | -0.46
COc1ccc(Cl)cc1C(=O)Nc1nnc(C(C)C)s1 | 1.1 | 2.6
O=S(=O)(Nc1ccc(-c2cn3ccccc3n2)cc1)c1ccc(F)cc1 | 0.92 | -2.3
Cc1nc(C)c(-c2csc(Nc3ccc(N(C)C)cc3)n2)s1 | 0.054* | -19*
CCS(=O)(=O)N1CCCC(C(=O)NCc2ccc(F)cc2)C1 (stereo not drawn) | 0.99 | -0.3
CCc1cccc(C)c1NC(=O)CS(=O)(=O)Cc1nc(-c2ccc(C)cc2)oc1C | 1.1 | 0.26
O=C(Cn1cc(S(=O)(=O)c2ccc(F)cc2)c(=O)c2ccccc21)Nc1ccc(Cl)cc1 | 0.88 | -1.7
Cc1ccc(-c2nnc(Nc3ccc4c(c3)OCO4)c3ccccc23)cc1S(=O)(=O)NC(C)(C)C | 0.78 | -2.5
O=C(CN1C(=O)CCSc2ccccc21)N1CCc2ccccc2C1 | 0.99 | -0.12
COc1ccc(NC(=O)c2cccc(N3C(=O)c4ccc(C(=O)O)cc4C3=O)c2)c(OC)c1 | 0.99 | -0.23
Cc1cc2nc(Nc3ncc4c(n3)CC(C)(C)CC4=O)nc(C)c2cc1C | 1 | -0.031

Filtered by structure: the entries above with two or more sulfur atoms.
SMILES | CBX7 AlphaScr | CBX7 AlphaScr z-score
O=C(Nc1ccc(Cl)cc1)c1cccc(NC2=NC3CS(=O)(=O)CC3S2)c1 (stereo not drawn) | 1.1 | 2.1
Cc1nc(C)c(-c2csc(Nc3ccc(N(C)C)cc3)n2)s1 | 0.054* | -19*

Later entries
SMILES | CBX7 AlphaScr | CBX7 AlphaScr z-score
Clc1cccc(-c2nc(-c3ccncc3)no2)c1 | 1.1 | 1
CCOc1ccc(NS(=O)(=O)c2ccc3c(c2)CC(C)N3C(C)=O)cc1 (stereo not drawn) | 0.96 | -1.1
CN1CCN(C(=O)CN2CCN(Cc3cccc(Cl)c3)C2=O)CC1 | 0.79 | -2.7
COc1ccc(OC)c(-c2nnc(SCC(=O)N3CCOCC3)o2)c1 | 1 | -0.023
COc1ccc(-n2nc(C(=O)Nc3ccc(OC)c(Cl)c3)c3ccccc3c2=O)cc1 | 0.95 | -1.4
O=C(CS(=O)(=O)c1nc(-c2ccccc2)cn1-c1ccccc1)Nc1ccccc1 | 1 | 0.032
CCc1ccc(N2CC(C(=O)Nc3nccs3)CC2=O)cc1 (stereo not drawn) | 1 | 0.64
Cc1cc(C)cc(C(=O)Nc2c3c(nn2-c2ccc(Cl)cc2)CS(=O)(=O)C3)c1 | 0.88 | -0.82
Cc1ccc(NC(=O)C2C3C=CC4(CN(Cc5cccnc5)C(=O)C24)O3)cc1 (stereo not drawn) | 1 | 0.44
Cc1cc(Nc2cccc(C(F)(F)F)c2)n2ncnc2n1 | 0.97 | -0.28
Cc1cccc(-n2ncc3c(NCCc4ccc(S(N)(=O)=O)cc4)ncnc32)c1 | 0.83 | -2.7
CCCCn1c(=N)n(CCOc2ccccc2)c2ccccc21 | 0.96 | -1.7
CCOc1ccc(-c2cn(-c3ccc(OC)cc3)c(SCC(=O)Nc3ccc(Cl)cc3)n2)cc1 | 1 | 0.35
CCc1nnc(NC(=O)c2ccc(S(=O)(=O)N(CCC#N)CCC#N)cc2)o1 | 0.056* | -10*
CCn1cc(C(=O)Nc2ccc3c(c2)OCO3)c(=O)c2ccc(C)nc21 | 1 | 0.2
COc1ccc(-n2nc3c(c2NC(=O)C(C)Oc2ccccc2)CSC3)cc1 (stereo not drawn) | 0.91 | -2.4
Cc1ccc(C)c(N2CCN(C(=O)c3cnn4c(C)c(Cc5ccccc5C)c(C)nc34)CC2)c1 | 0.72 | -7.7
CCOC(=O)c1cccc(NC(=O)C2CCCN(S(=O)(=O)c3c(C)n[nH]c3C)C2)c1 (stereo not drawn) | 1.1 | 1.2
Cc1cc(C)cc(N(CC(=O)NC2CCCCCC2)S(=O)(=O)c2c(C)noc2C)c1 | 1.1 | 0.83
COc1ccccc1CN1C(=O)c2ccccc2C1C(=O)NC1CCC(C)CC1 (stereo not drawn) | 0.96 | -0.24
Cc1ccccc1C1CC(=O)NC2=C1C(=O)CC(C)(C)C2 (stereo not drawn) | 1 | 0.089
Cc1ccc2cc(CCNC(=O)Cc3cccs3)c(=O)[nH]c2c1C | 1 | 0.13
Cc1cccc(OCc2nc(-c3cccnc3)no2)c1 | 1 | 0.92
CCN(CC)S(=O)(=O)c1ccc2c(c1)N(CC(=O)NCCc1ccc(Cl)cc1)C(=O)CO2 | 1.1 | 2.4
COc1ccc(-c2nn(C)c3sc(C(=O)Nc4cc(C)on4)cc23)cc1OC | 0.99 | -0.37
C=CCc1cc(C)ccc1OCC(O)CN1CCN(c2ccccc2)CC1 (stereo not drawn) | 0.38* | -1.3*
O=C(Nc1nnc(COc2ccc(F)cc2)s1)C1CCCCC1 | 0.99 | -0.33
CC(=O)Nc1ccc2nc(SCc3nc4ccccc4[nH]3)sc2c1 | 1 | 0.0064
Cc1ccc(-c2nc(CS(=O)(=O)CC(=O)NC3CCCc4ccccc43)c(C)o2)cc1 (stereo not drawn) | 1.1 | 0.15
c1cnc2nc(-c3ccsc3)c(Nc3ccc4c(c3)OCO4)n2c1 | 0.93 | -2.9
Cc1ccc(Nc2ncc(C(=O)NCCCN3CCCCCC3)c3ccccc23)cc1Cl | 1.2 | 7.5
O=C(Nc1ccc(F)c(F)c1)C1CCCN(S(=O)(=O)c2cccc3cccnc23)C1 (stereo not drawn) | 0.99 | -0.47
O=C(CC1(O)C(=O)Nc2ccccc21)c1ccccc1C(F)(F)F (stereo not drawn) | 1 | 0.17
Cc1ccc(-c2nc3ccccc3s2)cc1NC(=O)c1cccc(F)c1 | 0.99 | -0.23
CCC(C(=O)Nc1ccccc1OC)n1nc(-c2ccc(OC)cc2)ccc1=O (stereo not drawn) | 1 | 0.23
CCOc1ccc(C(=O)Nc2cccc(-c3nc4cc(C)ccc4o3)c2)cc1 | 1.2 | 0.7
COc1cccc(Nc2nc(-c3cc(C)ccc3C)cs2)c1 | 0.72 | -4.2
Cc1ccc(Cl)cc1-n1c(CCC(=O)O)ccc1-c1ccccc1 | 0.89 | -1.8
CN(CCNC(=O)CN1C(=O)COc2ccc(S(=O)(=O)N3CCOCC3)cc21)C1CCCCC1 | 1.1 | 3.7
COc1ccc(OC)c(Nc2nc(-c3ccncc3)cs2)c1 | 0.93 | -0.88

Taken from above.
CBX7 AlphaScr with Cc1ccc2cc(CCNC(=O)Cc3cccs3)c(=O)[nH]c2c1C stands at 1
CBX7 AlphaScr z-score with CCOc1ccc(C(=O)Nc2cccc(-c3nc4cc(C)ccc4o3)c2)cc1 stands at 0.7
CBX7 AlphaScr z-score with CC(=O)Nc1ccc2nc(SCc3nc4ccccc4[nH]3)sc2c1 stands at 0.0064
CBX7 AlphaScr z-score with COc1ccc(OC)c(Nc2nc(-c3ccncc3)cs2)c1 stands at -0.88
CBX7 AlphaScr with Cc1ccc(-c2nc(CS(=O)(=O)CC(=O)NC3CCCc4ccccc43)c(C)o2)cc1 (stereo not drawn) stands at 1.1
CBX7 AlphaScr z-score with CN(CCNC(=O)CN1C(=O)COc2ccc(S(=O)(=O)N3CCOCC3)cc21)C1CCCCC1 stands at 3.7
CBX7 AlphaScr z-score with C=CCc1cc(C)ccc1OCC(O)CN1CCN(c2ccccc2)CC1 (stereo not drawn) stands at -1.3*

(continued)
SMILES | CBX7 AlphaScr | CBX7 AlphaScr z-score
Cc1nc2c(-c3ccc(F)cc3)c(C)nn2c(C)c1CCC(=O)NC1CCN(Cc2ccccc2)CC1 | 1.1 | 3.6
CCc1ccc(CNC(=O)c2cc3c(-c4ccc(OC)c(OC)c4)nn(C)c3s2)cc1 | 0.99 | -0.12
CC(NC(=O)C(=O)NCCc1c[nH]c2ccccc12)C(c1cccs1)N1CCN(C)CC1 (stereo not drawn) | 0.94 | -1.3
CC1CCCN(S(=O)(=O)c2ccc3[nH]c(=O)cc(C(=O)NC(C)C)c3c2)C1 (stereo not drawn) | 0.83 | -2.4
CCC(=O)N1CCc2cc(S(=O)(=O)NCCN(C)C)ccc21 | 0.95 | -0.43
COc1ccccc1N1C(=O)c2ccc(C(=O)Nc3cc(C)on3)cc2C1=O | 0.99 | -0.33
COc1ccc(C2CC(=O)N(CC(=O)NCCc3ccccc3)c3ccccc3S2)cc1OC (stereo not drawn) | 0.86 | -1.9
CCOc1ccc2c(c1)c(=O)c(S(=O)(=O)c1ccccc1)cn2CC(=O)Nc1ccc(CC)cc1 | 1.1 | 2.9
Clc1ccc(OCc2nc(-c3ccccn3)no2)c(Cl)c1 | 0.77 | -1.7
COc1cc(-c2nc(-c3ccc(NC(=O)c4ccc5c(c4)OCO5)cc3)no2)cc(OC)c1OC | 1.1 | 1.1
O=C(Nc1ccc(F)cc1)C1CCCN(S(=O)(=O)c2ccc(Br)s2)C1 (stereo not drawn) | 1.3 | 1.3
CCOC(=O)c1oc2ccccc2c1NC(=O)c1cc2ccccc2o1 | 1.1 | 3.9
CCCN(C(=O)Cn1ncc2c1-c1cc(C)ccc1OC2)c1ccc(CC)cc1 | 1.1 | 2.1
Cc1ccc(-n2c(C)nc3cc(C(=O)NCc4ccccn4)ccc32)c(C)c1 | 0.86 | -2.4
O=C(NC1CCCCC1)C1CCCN(S(=O)(=O)c2cccc3cccnc23)C1 (stereo not drawn) | 1.2 | 2.6
Cc1cc(N2CCN(c3ccc(F)cc3)CC2)nc2cc(O)ccc12 | 0.93 | -3
O=C(NCCN1CCN(Cc2ccccc2)CC1)C1CC(=O)N(C2CCCC2)C1 (stereo not drawn) | 1 | 0.18
Cc1ccc(N2CC(C(=O)NCc3ccccc3)CC2=O)cc1 (stereo not drawn) | 1.1 | 0.77
Clc1ccc(-c2csc(Nc3ccc4c(c3)OCO4)n2)cc1 | 0.64 | -5.7
COc1ccc(C(=O)NC(C)C(c2cccs2)N2CCOCC2)cc1 (stereo not drawn) | 1 | 0.66

Not all compounds are listed, so the mix of outcomes need not match the whole.
